Resorufin fluor: resorufin region autofluorescence; AID 588; 59,000 compounds, 0.04% hits; max dye-equivalent concentration, M; Compound fluorescence, resorufin region 547/598 nm, buffer; stronger effect = higher value; active = above 10 nM dye equivalent; inconclusive = 1 to 10 nM; inactive = 1 nM or less; a few of its hits are not listed in these tables; further: highest value over a series up to 38 µM
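Compounds in 100 mM Tris, pH 8.0, incubated 15 min at room temperature, then fluorescence read at 547 nm excitation/598 nm emission. Signal converted to dye-equivalent concentration via an on-plate six-point resorufin standard curve, per compound concentration.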
AID923: qHTS Assay for Allosteric/Competitive Inhibitors of Caspase-1: Spectroscopic Profiling in AFC Spectral Region; Potency, µM (top dose mostly 57.5 µM), inactives show at the top dose fluorescence increase, most hits filed as activators; AID 923, 2007; 75,000 compounds, 1.1% hits; compound fluorescence, AFC spectral region (405/520 nm); almost no hit is shown here; active means well fitted activation curve with a large enough effect; inconclusive means small, poorly fitted or top-dose-only effect;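 further: potency means the concentration at half of the fitted maximal effect; 0% is about no effect; scaled to a free AFC standard on each plate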
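Compound autofluorescence profiled at 405 nm ex/520 nm em during kinetic caspase 1 run (50 nM enzyme, 5 uM Ac-WEHD-AFC, HEPES pH 7.5, 10 mM DTT). Titration up to 57 uM; baseline from regression intercept, normalized to AFC standard curve.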
TSHR ag: agonists of human thyroid stimulating hormone receptor; P16473; HEK293-CNG-TSHR cells (CNG channel as cAMP sensor), membrane potential dye, cAMP; Potency, µM (series often up to 57.1 µM), for inactives: at the top dose activation, most hits filed as activators; 73,000 compounds, 0.48% hits; active = well fitted activation curve of enough size with the parental cells flat; inconclusive = any curve in the parental cells; inactive = parental cells flat and receptor cells flat or falling; further: potency means the concentration at half of the fitted maximal effect; % of control where 0% means no effect; weak receptor curves with flat parental cells got no call and are not listed
Target sequence (P16473 whole entry, looked up): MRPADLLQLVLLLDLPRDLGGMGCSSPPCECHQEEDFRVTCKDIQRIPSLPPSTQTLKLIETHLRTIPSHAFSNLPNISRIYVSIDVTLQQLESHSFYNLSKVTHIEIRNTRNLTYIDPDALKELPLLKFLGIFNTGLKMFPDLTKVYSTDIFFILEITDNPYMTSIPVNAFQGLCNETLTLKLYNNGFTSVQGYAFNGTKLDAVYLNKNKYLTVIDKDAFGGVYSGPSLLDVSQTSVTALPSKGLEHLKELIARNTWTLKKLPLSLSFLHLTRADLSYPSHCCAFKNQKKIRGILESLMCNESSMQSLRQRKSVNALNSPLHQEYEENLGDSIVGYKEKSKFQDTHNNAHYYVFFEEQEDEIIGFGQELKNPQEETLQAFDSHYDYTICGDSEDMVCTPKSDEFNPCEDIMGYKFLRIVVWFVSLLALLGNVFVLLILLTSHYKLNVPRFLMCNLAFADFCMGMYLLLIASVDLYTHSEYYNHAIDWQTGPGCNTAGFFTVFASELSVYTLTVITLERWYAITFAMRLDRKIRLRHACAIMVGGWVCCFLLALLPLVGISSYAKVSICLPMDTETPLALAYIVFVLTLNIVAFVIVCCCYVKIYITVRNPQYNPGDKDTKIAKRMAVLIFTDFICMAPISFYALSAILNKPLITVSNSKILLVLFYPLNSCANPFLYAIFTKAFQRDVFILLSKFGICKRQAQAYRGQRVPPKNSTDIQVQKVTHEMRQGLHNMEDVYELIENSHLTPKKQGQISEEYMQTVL
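cAMP rise detected as CNG-channel membrane depolarization by fluorescent dye (emission 590 nm), 30 min after compound, following 60 min dye loading containing 100 uM RO 20-1724 at room temperature. Cells: TSHR/CNG HEK 293, with parental CNG HEK 293 as control.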
A647 fluor: A647 region autofluorescence; Compound fluorescence, A647 channel (570/671 nm), Tris buffer; max dye-equivalent concentration, M; 59,000 tested, under 10 active; active means above 1 µM dye equivalent; inconclusive means 0.1 to 1 µM; inactive means 0.1 µM or less;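 further: values scaled relative to a standard on each plate; highest value over a series up to 38 µM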
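Tris 100 mM pH 8.0; cpd + A647 stds pin-transferred; 15 min RT; CCD imager, ex 570/em 671. Output = A647-equivalent conc. per cpd conc.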
A488 autofl: A488 region autofluorescence; compound autofluorescence, A488 spectral region, dye equivalency; stronger effect = higher value; max dye equivalency, M; 59,000 compounds, 0.1% hits; active = above 10 nM dye equivalent; inconclusive = 1 to 10 nM; inactive = 1 nM or less; about half of its hits are not listed in these tables;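 further: highest value over a series up to 38 µM; compound alone in buffer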
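Read-out: relative fluorescence at 480/540 nm, expressed as Alexa 488 dye-equivalent concentration from a six-point A488 standard included per plate. Conditions: 100 mM Tris, pH 8.0; 15 min incubation, room temperature.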
An asterisk follows results filed as active; i = inactive; ? = inconclusive; · = no result given; & = joins results of further samples; [ ] = remark or other dose. An excerpt; count on the stated rates, not on these rows.

Values in the order – Resorufin fluor	AID923	TSHR ag	A647 fluor	A488 autofl
- Cc1cc(C)nc(NS(=O)(=O)c2ccc(NC(=O)NC3CCCCC3)cc2)n1
  i	0.0%	-12.0%	5.5e-09	i
- CCOC(=O)c1cc2sc(C)cc2n1CC(=O)NCCc1ccccc1
  i	0.3%	?	2e-09	i
- CCS(=O)(=O)N1CCCC(C(=O)NCCCOC(C)C)C1 (stereo not drawn)
  i	-1.4%	2.2%	5e-09	i
- COc1cc(-c2nn3c(COc4ccccc4)nnc3s2)cc(OC)c1OC
  i	·	·	2.51e-08	i
- COc1cc(CN2CCC(C(=O)N3CCN(c4ccccc4F)CC3)CC2)cc(OC)c1OC
  i	0.1%	3.6%	4.86e-08	i
- O=C(NC1CC2CCCC(C1)N2C(=O)Nc1ccccc1)c1ccncc1 (stereo not drawn)
  i	-3.8%	-3.2%[11.4 µM]	7.5e-09	i
- COC(=O)C1CCN(C(c2cccs2)c2sc3nc(C)nn3c2O)CC1 (stereo not drawn)
  ·	-4.1%	-1.5%	·	·
- COC(=O)c1ccc(NC(=O)CSc2nnc(Cc3cccn3C)n2-c2ccc(F)cc2)cc1
  ·	1.3%	-7.7%	·	·
- O=C(c1nnc(Cc2ccc(Cl)cc2)o1)N1CCOCC1
  ·	0.6%	16.0%	·	·
- Cn1c(Br)nc2c1c(=O)n(CC(O)COc1ccccc1)c(=O)n2C (stereo not drawn)
  i	0.8%	3.7%	6.9e-09	i
- CC1CN(C(=O)COC(=O)c2cccs2)CC(C)O1 (stereo not drawn)
  i	-2.6%	18.7%	1e-09	i
- CN1CCCCCC1=NC1=C(C#N)CCCC1
  i	0.5%	2.2%	2.68e-08	i
- O=C(C1CC1)N1CCc2cc(Br)cc(S(=O)(=O)N3CCN(c4ccccn4)CC3)c21
  i	-0.9%	?	1e-09	i
- Nc1nc2c(ncn2COC(CO)CO)c(=O)[nH]1
  i	0.0%[25.7 µM]	4.3%[25.6 µM]	3.27e-08&4.82e-08	i
- O=C(/C=N/O)NCc1cccnc1
  i	-2.0%	8.2%	1.16e-08	i
- Cc1ccc2cc(CN(CCCN3CCOCC3)C(=O)NC3CCCCC3)c(=O)[nH]c2c1C
  i	1.6%	?	1e-09	i
- CCCCCCn1c(CN2CCC(C)CC2)nc2c1c(=O)n(C)c(=O)n2C
  i	-0.6%	?	2.3e-08	i
- COc1ccc(-c2cnc(N)nc2-c2ccc(OC)cc2O)cc1
  i	0.6%	?	1.96e-08	i
- CC(O)CNC(=O)C1CCN(Cc2ccc(OCc3ccccc3)cc2)CC1 (stereo not drawn)
  i	-2.3%	9.5%	3.93e-08	i
- Cc1nc2ccccn2c1-c1csc(NCc2ccco2)n1
  i	0.6%	14.5%	1e-09	i
- COc1cc(OC)c(OC)cc1CNCCNC(=O)c1nonc1N
  i	-1.3%	1.0%	1.24e-08	i
- Cc1ccc2c(c1)CCCN2C(=O)c1cccs1
  i	-0.7%	?	1e-09	i
- COc1ccc(NC(=O)CSc2nc3sc(C)c(C)c3c(=O)n2Cc2ccco2)cc1
  i	-0.8%	11.2%	2.5e-09	i
- c1csc(CCNc2ncnc3sc4c(c23)CCC4)c1
  ·	0.6%	?	·	·
- COC(=O)c1cc(OC)c(OC)cc1NC(=O)CCc1ccc(C)o1
  i	2.6%	?	1e-09	i
- Cc1cccc(-n2c(SCCC(=O)O)nnc2-c2cccs2)c1C
  i	-0.2%	-7.0%	3.41e-08	i
- C=CCn1c(SCc2csc(C)n2)nc2scc(-c3ccc(C)o3)c2c1=O
  i	-0.6%	19.0%	3.01e-08	i
- CN1C(=O)c2ccc(N(C)C)cc2C1=O
  i	·	·	1e-09	i
- CCN(CC)C(=O)CN1CCC(n2c(C)nc3cc(C(F)(F)F)ccc32)CC1
  i	0.3%	5.6%	8.3e-09	i
- C=CCOc1ccc(C2/C(=C(\O)c3c(C)[nH]c(C(=O)OC)c3C)C(=O)C(=O)N2CCN(C)C)cc1 (stereo not drawn)
  i	1.8%	?	1.2e-08	i
- C[N+]1(C)CCc2cc(O)c(O)cc2[C@H]1Cc1ccc(O)c(O)c1
  i	-0.8%[11.5 µM]	-0.2%[11.4 µM]	1e-09	i
- CS(=O)(=O)N(CCc1ccccc1)CC(=O)N1CCN(Cc2ccccc2)CC1
  i	2.2%	2.1%	8.5e-09	i
- Cn1cc(/C=N/n2cnc3scc(-c4ccccc4)c3c2=O)c2ccccc21
  i	5.2%	5.1%	1e-09	i
- CCC(C)(C(=O)NC1CCCC1)N(CC1CCCO1)C(=O)c1ccc2c(c1)OCO2 (stereo not drawn)
  i	0.6%	?	2.58e-08	i
- CC(=O)Nc1c(O)nc(SCC(=O)Nc2ccc(C(C)=O)cc2)[nH]c1=O
  i	-1.7%	1.8%	2.12e-08	i
- CC(=O)Nn1c(-c2ccccc2)cc2ccccc21
  i	-0.9%	0.1%	1e-09	i
- CN(CC(=O)Nc1ccc(Cl)cc1)CC(=O)Nc1cc(Cl)ccc1C#N
  i	-0.3%	-3.8%	1.6e-09	i
- O=C(NCC1CC1)[C@@H]1C[C@H]1[C@@H](NP(=O)(c1ccccc1)c1ccccc1)c1ccccc1
  ·	-0.5%	?	·	·
- Cn1c(=O)[nH]c(=O)c2c1nc(Br)n2CC(O)c1ccccc1 (stereo not drawn)
  i	-0.5%	-11.1%	3.5e-09	i
- COc1cc(C2C(C(=O)OC(C)C)=C(C)Nc3ncnn32)cc(OC)c1OC (stereo not drawn)
  ·	0.7%	-2.9%	·	·
- O=C(CN1CCCN(S(=O)(=O)c2ccc(Br)cc2)CC1)Nc1ccc2cn[nH]c2c1
  i	-0.4%	·	9.5e-09	i
- COc1ccc(-n2c(Cn3c(=O)sc4ccccc43)nnc2SC)cc1
  ·	1.3%	9.9%	·	·
- CN(c1ccccc1)c1nc(-n2ccnc2)nc(-n2ccnc2)n1
  i	1.3%	·	1.4e-08	i
- CCC(=O)c1cc(F)c(N2CCN(C(=O)Cc3ccccc3)CC2)cc1C
  i	-2.4%	8.8%	1.32e-08	i
- CCN(C#N)c1nc(N(C)C)nc(N(C)C)n1
  i	1.0%	28.8%	1e-09	i
- CCn1c(=O)c(=O)[nH]c2cc(C(=O)NC3CCCc4ccccc43)ccc21 (stereo not drawn)
  ?	-1.2%	8.1%	1.97e-08	i
- Cc1cccc(N2CCN(C(=O)c3ccc(NS(=O)(=O)c4c(C)noc4C)cc3)CC2)c1C
  i	-1.0%	15.3%	4.3e-09	i
- CCS(=O)(=O)N1CCCC(C(=O)NCCCN(C)Cc2ccccc2)C1 (stereo not drawn)
  i	-0.5%	-0.3%	1.4e-09	i
- O=c1cc(-c2ccc(Cl)cc2)[nH][nH]1
  i	-2.1%	·	1.08e-08	i
- CCOC(=O)OCC
  ·	0.3%	-10.9%	·	·
- CCOC(=O)c1ccccc1NC(=O)CSc1ncc(C(=O)OCC)c(N)n1
  i	0.3%	?	1.82e-08	i
- COCCn1nnnc1C(c1ccc(Cl)cc1)N1CCSCC1 (stereo not drawn)
  i	3.3%	?	1e-09	i
- O=C(NCc1cccs1)c1csc2ccccc12
  i	9.3%	1.6%	1.79e-08	i
- NC(=O)C1CCN(c2nc(C3CC3)nc3c2nnn3Cc2ccccc2)CC1
  i	0.9%	6.6%	1.36e-08	i
- COC(=O)[C@@]1(Cc2ccc(OC)cc2)[C@H]2c3cc(C(=O)N(C)C)n(Cc4ccccc4)c3C[C@H]2CN1C(=O)c1ccccc1
  ·	-1.3%	?	·	·
- O=C(CC1N=C2c3ccccc3N=C(SCc3ccccc3Cl)N2C1=O)NCc1ccco1 (stereo not drawn)
  i	3.9%	?	2.34e-08	i
- CCn1cnc2cc(NCc3ccncc3)ccc21
  i	-0.8%	2.3%	1.17e-08	i
- NC(=O)CCn1c(=O)oc2ccccc21
  i	-0.4%	10.6%	1e-09	i
- NC(=O)CSc1nnc(Cn2c(=O)sc3ccccc32)n1CCc1ccccc1
  ·	1.0%	4.2%	·	·
- Cn1c(=O)[nH]c(=O)c2c1nc(NCCCn1ccnc1)n2Cc1cccc(Br)c1
  i	-0.5%	20µM*	3.48e-08	i

The list continues.
Values in the order – Resorufin fluor	AID923	TSHR ag	A647 fluor	A488 autofl
- O=C(O)c1ccc(OCc2ccccc2)c(Cl)c1
  i	1.1%[11.5 µM]	4.0%[11.4 µM]	5.19e-08	i
- Nc1cc(-c2ccccc2)ccc1O
  i	-2.3%	11.4%	5.1e-09	i
- Cc1ccc(C(=O)C2COC(=O)C2)cc1 (stereo not drawn)
  i	3.7%	13.4%	1.59e-08	i
- CCOC(=O)C(NC(=O)CC)(Nc1cc(C)on1)C(F)(F)F (stereo not drawn)
  i	-1.0%	-1.3%	1e-09	i
- CCc1nnc(NC(=O)C2CCCCC2)s1
  ·	-1.7%	0.2%	·	·
- COc1ccc(OC)c(CN2C(=O)c3ccccc3C2C(=O)NCc2cccnc2)c1 (stereo not drawn)
  ·	0.9%	9.4%	·	·
- CC/C(CC(C)(C)c1ccccc1)=N\O
  ·	-1.3%	0.2%	·	·
- O=C(c1cnccn1)N1CCC2(CCCN(c3ccccc3)C2)CC1
  i	-0.4%	7.5%	2.36e-08	i
- O=C(CSc1nnnn1Cc1ccccc1)NCCc1ccccc1
  i	-0.9%	28.8%	5.41e-08	i
- Cc1ccccc1Cn1ccc(NC(=O)c2onc(C)c2Cl)n1
  ·	-1.6%	9.3%	·	·
- CCC(C)Sc1nnc(Cc2cc(=O)[nH]c(=O)[nH]2)n1-c1ccc(OC)cc1 (stereo not drawn)
  ·	1.5%	0.1%	·	·
- CCn1cc(C(=O)N2CCN(c3ccccn3)CC2)c2cc(OC)c(OC)cc2c1=O
  i	-0.6%	6.3%	2.1e-09	i
- COc1ccc(C(=O)N(Cc2ccco2)Cc2cc3cc(C)ccc3[nH]c2=O)cc1OC
  i	4.1%	12.3%	1.02e-08	i
- O=C(O)CS(=O)(=O)CC(=O)O
  i	-1.3%	-11.4%	2.13e-08	i
- Cc1ccccc1OCC(=O)Nc1cccc(N(C)S(C)(=O)=O)c1
  i	-1.1%	2.2%	1e-09	i

Single records (already shown). Screens in order: Resorufin fluor	AID923	TSHR ag	A647 fluor	A488 autofl
Entry for `Cc1ccc(C(=O)C2COC(=O)C2)cc1` (stereo not drawn) → i	3.7%	13.4%	1.59e-08	i
Entry for `CCc1nnc(NC(=O)C2CCCCC2)s1` → ·	-1.7%	0.2%	·	·

(listing goes on)
Values in the order – Resorufin fluor	AID923	TSHR ag	A647 fluor	A488 autofl
- CCOC(=O)Cc1csc(NC(=O)CSc2nnnn2-c2ccc(F)cc2)n1
  i	0.5%	14.9%	2.2e-09	i
- COc1ccc(OCCSc2ncccn2)cc1
  i	-1.7%	0.1%	3.66e-08	i
- CC(=O)c1n[nH]nc1Nc1nc(C)cc(C)n1
  i	0.8%	18.0%	1.4e-09	i
- O=C1C2Cc3c([nH]c4ccccc34)C(c3ccccc3)N2C(=O)C2Cc3c([nH]c4ccccc34)C(c3ccccc3)N12 (stereo not drawn)
  ·	-2.0%[11.5 µM]	-17.8%[11.4 µM]	·	·
- CN(C)C(=O)COc1ccc2ccc(=O)oc2c1
  ·	-0.3%	-2.5%	·	·
- Cn1c(C(=O)Nc2ccc3c(c2)OCO3)cc2sccc21
  i	-1.0%	-13.7%	1e-09	i
- Cc1cc2ncn(N)c2cc1C
  i	-2.5%	-5.5%	7.4e-09	i
- Cc1occc1C(=O)Nc1cccc2ccccc12
  i	1.6%	-8.2%	3.4e-09	i
- CS(=O)(=O)N1CCN(c2nc(-c3ccccc3)cs2)CC1
  ·	0.7%	22.4%	·	·
- CCOC(=O)CSc1nc2ccc(NC(C)=O)cc2s1
  ·	-0.5%	-8.5%[11.4 µM]	·	·
- CS(=O)(=O)N(CC(=O)N1CCC(C(N)=O)CC1)C1CCCCC1
  i	0.0%	-0.7%	5.6e-09	i

Screens deposited in PubChem by National Center for Advancing Translational Sciences (NCATS).
